RGS16-Gao HTS: modulates binding between human RGS16 and Galphao; AID 1441; 220,000 tested, 0.38% active; binding response (% of control), % at 10 µM; bead-based flow cytometry RGS16-Galphao binding, fluorescence; actives lie on both sides;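 active = below 25% or above 175%, edge rows of some plates excepted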;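 also: Galphao activated by GDP with aluminum fluoride before binding; 100% = wells without compound and 0% = beads without RGS; some results beyond the cut were filed as inactive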
Target sequence (O15492 whole entry, looked up): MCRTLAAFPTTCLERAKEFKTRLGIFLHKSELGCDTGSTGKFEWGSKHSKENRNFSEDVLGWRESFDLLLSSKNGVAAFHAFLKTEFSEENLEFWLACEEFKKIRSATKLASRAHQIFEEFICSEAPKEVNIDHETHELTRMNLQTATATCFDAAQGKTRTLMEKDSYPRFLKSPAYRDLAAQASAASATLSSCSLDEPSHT
Target sequence (P09471 whole entry, looked up): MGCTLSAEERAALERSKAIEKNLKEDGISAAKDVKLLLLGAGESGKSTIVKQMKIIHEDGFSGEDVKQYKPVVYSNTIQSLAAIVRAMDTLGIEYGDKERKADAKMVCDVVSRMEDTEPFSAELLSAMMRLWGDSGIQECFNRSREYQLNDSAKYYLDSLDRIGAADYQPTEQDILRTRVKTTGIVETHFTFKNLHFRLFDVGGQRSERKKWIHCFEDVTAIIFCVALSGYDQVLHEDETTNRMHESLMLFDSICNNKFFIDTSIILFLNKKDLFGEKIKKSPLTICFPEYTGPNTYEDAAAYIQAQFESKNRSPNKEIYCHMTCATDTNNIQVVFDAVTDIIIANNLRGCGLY
PKD1 inh: inhibitors of human PKD1 kinase | Q15139 | PKD1 kinase fluorescence polarization assay | inhibition, %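 (about 10 µM by stock and volumes)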 | 200,000 tested, 0.056% active | AID 797;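 active = inhibition of 50% or more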;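 also: controls were vehicle for no effect and a reference inhibitor for full effect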
HSV augment: HSV replication enhancement; HSV replication augmentation in cells, fold increase; maximum fold increase; 220,000 tested, 0.005% active; AID 1956;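 active = peak rise of 1.5-fold or more in the series; inconclusive = self-fluorescent or not available for retest; tested in PC3 cells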;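 also: first round at 10 µM; read as green reporter fluorescence; hits show the peak of a series up to 25 µM; 1 = signal of infected wells without compound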
INS promoter inh: TRM-6 insulin promoter activity inhibition; TRM-6 cells (human fetal islet line), insulin promoter-eGFP reporter, imaging; reporter expression induced with tamoxifen; inhibition, % at 2 µM; 130,000 tested, 0.9% active; AID 1273;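 active = inhibition above the mean plus 3 SD, with well images judged a real hit on visual review, cut at about 60% in these data, passing the limit was not always enough; inconclusive = inhibition over the cutoff but images rejected on review; inactive = inhibition not above the cutoff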
GALR2 agonist: activates the human galanin receptor 2; O43603; activation, %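 (tested at 5 µM)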; 140,000 tested, 0.48% active; AID 803; GALR2-expressing cells, agonist activation read-out;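 active = above mean plus 3 SD of all compounds, about 5% in these data, not always enough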;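 also: 0% = vehicle buffer wells and 100% = reference agonist at full effect; tested in CHO reporter cells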
Target sequence (O43603 whole entry, looked up): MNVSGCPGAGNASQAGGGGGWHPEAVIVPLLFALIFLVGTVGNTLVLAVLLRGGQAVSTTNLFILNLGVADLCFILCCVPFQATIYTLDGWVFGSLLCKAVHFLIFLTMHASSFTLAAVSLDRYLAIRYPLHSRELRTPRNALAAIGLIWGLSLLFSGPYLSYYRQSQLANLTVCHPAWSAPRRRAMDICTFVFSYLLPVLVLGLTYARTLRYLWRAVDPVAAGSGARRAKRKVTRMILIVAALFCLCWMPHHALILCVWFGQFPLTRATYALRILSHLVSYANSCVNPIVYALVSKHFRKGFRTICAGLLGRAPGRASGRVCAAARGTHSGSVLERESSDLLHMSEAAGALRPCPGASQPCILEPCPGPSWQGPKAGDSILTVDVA
INS promoter inh cell count: recorded beside INS promoter inh, whose call it bears; normalized cell count, %; measured here: cell count, toxicity; reference of the scale not given here;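 cells exposed to compound for 48 h; stained nuclei by imaging scaled within each plate; lower means fewer cells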
HSV augment primary fold: also measured in HSV augment; calls as there; fold increase; compound at 10 µM; measured here: primary screen fold increase 10 uM; tested in PC3 cells;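 GFP signal in the first replicate; 1 = infected wells without compound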
The depositor's hits bear a star; i = inactive; ? = inconclusive; / = no result given.

SMILES	RGS16-Gao HTS	PKD1 inh	HSV augment	HSV augment primary fold	INS promoter inh	INS promoter inh cell count	GALR2 agonist
Cc1ccc(-c2noc(CSc3nnc(-c4ccncc4)n3-c3ccc(F)cc3)n2)cc1	99	-6	i	0.99	3	148	-1.9
O=c1c(Cl)c(O)c2cccc3c4ccccc4n1c23	95	-12	i	0.86	-22	122	-1.9
COc1ccc(C2=Nn3c(nnc3-c3ccco3)SC2)cc1	51	5	i	0.92	-9	150	-0.2
CCc1ccc(/C=C2\CN(CC)Cc3c2nc2ccccc2c3C(=O)O)cc1	105	-4	?	/	-65	82	-0.1
Cc1ccc(N(CC(=O)Nc2cc(C)cc(C)c2)S(=O)(=O)c2cccc3nonc23)cc1	105	0	i	0.87	23	102	0.9
COc1ccccc1C(=O)C1CCCN(C(=O)Nc2ccccc2F)C1 (configuration not stated)	100	2	i	1	/	/	/
O=C(Cc1ccccc1)Nc1nnc(-c2cccc([N+](=O)[O-])c2)s1	98	-1	i	0.94	/	/	1.4
Fc1ccc(-c2onc3ccc(C4OCCO4)cc23)cc1	102	-2	i	1	7	159	/
FC(F)(F)c1cccc(NC(=S)N2CCN(c3cccc(C(F)(F)F)c3)CC2)c1	100	6	i	0.96	-7	134	-1.7
COc1ccc(-c2nc(CSCC(=O)NCc3ccc4c(c3)OCO4)c(C)o2)cc1	105	-5	i	1	/	/	-1.3
Cc1ccc(C(C(=O)NC2CCCCC2)N(Cc2ccco2)C(=O)Cc2c[nH]c3ccccc23)o1 (configuration not stated)	96	-1	i	0.88	-56	49	-2.9
O=C(NNC(=S)NC1CCCCC1)c1sc2ccccc2c1Cl	106	-5	i	1.2	16	55	0.2
COc1ccc(CNC(=O)CN(Cc2ccc(Cl)cc2)S(=O)(=O)c2ccccc2)cc1	122	-3	i	0.94	-55	96	-1.3
CC(=O)CSc1nc(N)c(C#N)c(-c2cccs2)c1C#N	102	-6	i	0.85	27	125	0.2
S=c1nc(-c2ccccc2)n(CCCN2CCOCC2)c2c1CCCC2	99	-2	i	0.92	11	117	-1.5
COC(=O)Nc1ccc(S(=O)(=O)Nc2ccccc2F)cc1	103	-11	i	1	29	174	-0.1
COc1ccc(-c2[nH]ncc2CN(C)Cc2cccnc2)c(F)c1	97	-5	i	1	/	/	/
CCCNc1nc(C)cc(-c2cc(-c3ccccc3)on2)n1	98	/	i	0.67	/	/	/
CCSC1=NCCN1S(=O)(=O)c1ccc(Cl)cc1	99	-2	i	0.88	-14	122	/
CC(C)N1C(=O)NC2(c3ccccc3)N(C)C(=O)N(C)C12c1ccccc1 (configuration not stated)	108	-2	i	1	29	108	-1.6
CN(C)c1ccc(C2CC(c3cccc(NS(C)(=O)=O)c3)=NN2C(=O)c2ccccc2)cc1 (configuration not stated)	100	4	i	0.95	/	/	/
Cc1cccc2cc(C#N)c(NCCNC(=S)NCCCN3CCOCC3)nc12	106	5	i	0.97	-13	120	1.6
COc1cc(OC)nc(Oc2ccc(NC(C)=O)cc2)n1	98	3	i	0.95	/	/	/
O/N=C(\c1ccccn1)C1CC1c1ccccc1 (configuration not stated)	104	-12	i	1	11	119	/
CN(C)CCNC(=S)Nc1ccc(Cl)cc1	103	5	i	0.9	-17	125	-2.1
CCCCC(=O)NNC(=S)NC(=O)c1cccc([N+](=O)[O-])c1	99	-9	i	0.92	/	/	-1.4
CC(C)(C)c1cn(-c2ccc(Cl)cc2)c(=S)[nH]1	91	2	i	0.59	-18	114	-2.2
Cn1[nH]c(C(F)(F)F)c(C=Nc2ccc(Cl)cc2)c1=O	102	-6	i	1.1	/	/	/
CCn1c(=O)c(C(=O)CN(C)Cc2ccc(F)cc2)c(N)n(Cc2ccccc2)c1=O	104	-11	i	0.96	32	128	/
CCOC(=O)C1=C(C)N=c2s/c(=C\c3ccc(OCC(=O)O)cc3)c(=O)n2C1c1ccc(OC(C)C)cc1 (configuration not stated)	99	-1	i	0.94	-9	81	-1.3
CCN(CC)CCn1c2ccccc2c2cnc(N=CN(C)C)c(C#N)c21	103	8	i	0.91	21	126	2.2
O=C(c1ccco1)N1CCN(c2cc(=O)n(-c3ccc(Cl)cc3)c(=O)[nH]2)CC1	83	4	i	0.97	/	/	-1.4
COc1ccc(NC(=O)CCCn2c(=O)c3sccc3n(Cc3ccccc3)c2=O)cc1	110	-13	i	0.88	-17	106	-2.3
CCCCOC(=O)Nc1ccc(S(=O)(=O)Nc2ncccn2)cc1	99	-6	i	1.1	/	/	/
CCCc1nc2ccccc2c(=O)n1N	139	6	i	0.93	57	137	-0.1
COCCCNC(=O)c1c(N)n(-c2ccccc2)c2nc3ccccc3nc12	100	/	i	0.92	/	/	/
Cc1cc(NC(=O)C2C3C(=O)N(Cc4ccc(Cl)cc4)C(C(=O)NC4CCCCC4)C34C=CC2(C)O4)no1 (configuration not stated)	97	-9	/	/	-22	156	-1.1
CSc1ccc(/C=N/NC(=O)CN2CCN(Cc3ccccc3Cl)CC2)cc1	101	1	i	1	/	/	-0.7
Cc1ccc(C(=O)Nc2ccc3c(c2)OCO3)o1	101	-8	i	0.7	-42	76	-1.6
O=C(/C=C/c1ccccc1Cl)Nc1ccccc1	108	/	i	0.86	/	/	/
Cc1ccccc1CN1C[C@@H]2C[C@@H](c3cn[nH]c3-c3ccccc3)N3CCC[C@@]23C1=O	103	-5	i	0.99	/	/	/
N#Cc1cc(NCC2CCCO2)c([N+](=O)[O-])cc1C#N (configuration not stated)	106	-11	i	0.92	27	94	-1.2
Cc1ccccc1OCC(=O)Nc1ccc(N2CCN(S(C)(=O)=O)CC2)cc1	101	0	i	1.1	-21	174	-0.2
CCC(C)NCCOCCOc1ccc(C)cc1Br (configuration not stated)	94	-8	i	0.93	-9	99	-1.6
Cn1c(=O)[nH]c(=O)c2c1nc(N1CCCCC1)n2CCCSc1nnnn1-c1ccccc1	109	-10	i	0.94	/	/	1.1
O=C(CSc1ccc(-c2ccc(F)cc2)nn1)N1CCOCC1	102	-2	i	0.93	/	/	/
CCOC(=O)C1CCN(C(=S)Nc2ccc(CC)cc2)CC1	101	1	i	0.89	40	134	/
COc1ccc(C)cc1NC(=O)C(OC(=O)c1cccc(S(=O)(=O)N(C)c2ccccc2)c1)c1ccccc1 (configuration not stated)	104	-1	i	1	-44	45	-0.3
Fc1ccc(CSc2nc3ncccc3[nH]2)cc1	61	-7	i	0.93	13	132	-1.2
Cn1c(C(=O)NCCCN2CCCCC2)cc2sccc21	101	-8	i	0.81	/	/	-1.9

Structures above that have a furan ring, fused or not, in the order listed:
SMILES	RGS16-Gao HTS	PKD1 inh	HSV augment	HSV augment primary fold	INS promoter inh	INS promoter inh cell count	GALR2 agonist
COc1ccc(C2=Nn3c(nnc3-c3ccco3)SC2)cc1	51	5	i	0.92	-9	150	-0.2
Cc1ccc(C(C(=O)NC2CCCCC2)N(Cc2ccco2)C(=O)Cc2c[nH]c3ccccc23)o1 (configuration not stated)	96	-1	i	0.88	-56	49	-2.9
O=C(c1ccco1)N1CCN(c2cc(=O)n(-c3ccc(Cl)cc3)c(=O)[nH]2)CC1	83	4	i	0.97	/	/	-1.4
Cc1ccc(C(=O)Nc2ccc3c(c2)OCO3)o1	101	-8	i	0.7	-42	76	-1.6

New compounds follow
SMILES	RGS16-Gao HTS	PKD1 inh	HSV augment	HSV augment primary fold	INS promoter inh	INS promoter inh cell count	GALR2 agonist
CC1(C)OC(=O)N(CC(=O)Nc2cccc(C(F)(F)F)c2)C1(C)O (configuration not stated)	97	-7	i	0.99	27	87	/
Cn1cc(/C=N\NC(=O)c2cccs2)c2ccccc21	100	-4	i	0.86	/	/	/
COc1ccc(C(=O)NNC(=O)CSc2nnc(COc3ccccc3OC)n2C)cc1	107	-2	i	0.95	-40	117	-1.1
Cc1n[nH]c(=O)nc1NCCN(C)C	106	-8	i	1.1	/	/	-1.5
CN(C)c1ccc(N=Cc2nc(-c3ccccc3)oc2OC(=O)c2cccc(Br)c2)cc1	101	0	i	1	12	101	-1.9
CCOC(=O)c1c(NC(=O)Cn2nc(C(F)F)cc2C(F)F)sc(C)c1C	101	5	i	1	-46	88	-1.0
Cc1c(C(=O)NCCSCc2c(Cl)cccc2Cl)cccc1[N+](=O)[O-]	111	4	i	0.75	3	76	-2.4
COc1ccc(N2C(=O)C3C(C2=O)C2C=CC3C23CC3)c(OC)c1 (configuration not stated)	107	6	i	1	/	/	-1.9
Cc1ccc(-n2c(C)nc3c(cnn3-c3ccc(F)cc3)c2=O)cc1C	103	-8	i	1	-44	98	-0.3
O=C(c1cccs1)N1CCN(c2ncc(Br)cn2)CC1	107	/	i	1	/	/	/
CN(C)C(CNC(=S)Nc1cccc(Cl)c1)c1ccccc1 (configuration not stated)	98	-5	i	0.89	-35	84	/
OC1CCNC(=S)N1c1ccccc1 (configuration not stated)	104	-5	i	0.97	-17	134	/
O=S(=O)(N1CCCCC1)N1CCN(c2ccccc2F)CC1	119	-2	i	0.98	-68	108	0.2
COc1ccc(CC(=O)Nc2ccc(-c3nc4cc(C)ccc4o3)c(O)c2)cc1OC	94	-8	/	/	-38	107	-2.1
O=C(NNc1c2ccccc2nc2ccccc12)c1cccc(O)c1	113	-12	i	0.7	/	/	-1.7
CCOC(=O)C(C)Oc1cccc2c(=O)n(CC(=O)NCc3ccco3)ccc12 (configuration not stated)	104	-9	i	0.55	/	/	-1.6
CCOc1ccc(C2=NNC(c3cccnc3)=Nc3ccc(OC)cc32)cc1	100	-5	i	0.99	/	/	/
CC1(C)OC1COc1c2ccoc2cc2oc(=O)ccc12 (configuration not stated)	93	-8	i	0.83	/	/	/
Cc1cc2nn(-c3cccc4ccccc34)nc2cc1NC(=O)c1cccs1	106	-1	i	0.82	-54	76	-0.5
COc1ccc(OC)c(C2=NOC(C(=O)N3CCCc4ccccc43)C2)c1 (configuration not stated)	100	-6	i	0.96	6	157	-3.8
O=C(NCc1cccnc1)C1CC(c2ccc(F)cc2)=NO1 (configuration not stated)	105	-1	i	0.88	/	/	0.4
COc1cccc(NC(=O)CCc2nc(-c3ccccc3F)no2)c1	64	2	i	1	0	138	-0.1
CCc1cccc(C)c1NC(=O)N(C)C1CCCCC1	100	/	i	1	/	/	/
O=C(NCCCN1CCOCC1)c1csc2c1CCCC2	104	-1	i	1	/	/	0.3
COc1ccc(NC(=S)NCCC2=CCCCC2)cc1OC	102	-3	i	0.86	/	/	/
Cn1c(=O)c2[nH]c(N=NNc3ccccc3F)nc2n(C)c1=O	80	/	i	1.1	/	/	/
Cn1c(-c2cnn(-c3ccccc3)c2-n2cccc2)n[nH]c1=S	93	-8	i	0.88	12	105	/
CCCS(=O)(=O)n1nc(-c2ccc(OC)cc2)cc1N	98	-2	i	0.99	/	/	-1.2
O=C(Nc1ccc(O)c2c(=O)cc(-c3ccccc3Cl)oc12)c1cccc(Cl)c1	108	-3	i	0.75	-59	105	-0.4
O=C(Cc1cccc2ccccc12)N/N=C/c1ccc(O)c([N+](=O)[O-])c1	96	8	i	0.96	/	/	/

Three entries out of the list, sorted by length of the SMILES, ascending:
SMILES	RGS16-Gao HTS	PKD1 inh	HSV augment	HSV augment primary fold	INS promoter inh	INS promoter inh cell count	GALR2 agonist
O=C(c1cccs1)N1CCN(c2ncc(Br)cn2)CC1	107	/	i	1	/	/	/
COc1ccc(OC)c(C2=NOC(C(=O)N3CCCc4ccccc43)C2)c1 (configuration not stated)	100	-6	i	0.96	6	157	-3.8
COc1ccc(NC(=O)CCCn2c(=O)c3sccc3n(Cc3ccccc3)c2=O)cc1	110	-13	i	0.88	-17	106	-2.3

Remaining list, next part.
SMILES	RGS16-Gao HTS	PKD1 inh	HSV augment	HSV augment primary fold	INS promoter inh	INS promoter inh cell count	GALR2 agonist
CN(C)c1ccc(NC2=C([N+](=O)[O-])CS(=O)(=O)C2)cc1	94	-1	/	/	6	106	-1.2
CCOCC(=O)N1CCN(c2ccccc2OC)CC1	107	-3	i	0.95	/	/	/
COc1ccc(N(CC(=O)O)S(=O)(=O)c2ccc(OC)c(OC)c2)cc1	104	-2	i	0.85	-67	122	-0.1
CCN1C(=O)/C(=C\N2CCCCCC2)SC1=S	105	-8	i	0.95	/	/	-0.9
CCOc1ccc(/C=N/NC(=O)CNC(=O)c2ccc(S(=O)(=O)N3CCOCC3)cc2)cc1	100	-5	i	0.91	/	/	/
CCOC(=O)C1CCN(CC(=O)Nc2c(C(=O)OC)[nH]c3ccccc23)CC1	99	9	i	0.95	-33	73	-1.7
CC(C)(C)NC(=O)c1cc(F)c(F)cc1Cl	99	-1	i	0.7	23	180	-1.0
COc1ccc(/C(C)=N/NS(=O)(=O)c2cc(C)ccc2C)c(OC)c1	65	0	i	1	-11	82	/

Assay outcomes: PubChem BioAssay, several laboratories
